# Assay outcomes from PubChem.
# NPR1 antag: human Npr1 receptor antagonism | AID 1347048 | Potency, µM (highest dose often 46.3 µM), without a hit: at the top dose activity change, negative = inhibition, usual class: inhibitors | 1.6% of 76,000 active | P16066 | HEK293 hNpr1 GloSensor cGMP, ANP-stimulated luminescence; active = well fitted inhibition curve with a large enough effect; inconclusive = small, poorly fitted or top-dose-only effect; inactive = no such curve, though single readings can be large or run the other way;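 also: nearly all actives have a fitted effect of over 60% in size; nearly all hits also lower the signal before the agonist is added; a reference antagonist and vehicle were the controls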
# Target sequence (P16066 whole entry, looked up): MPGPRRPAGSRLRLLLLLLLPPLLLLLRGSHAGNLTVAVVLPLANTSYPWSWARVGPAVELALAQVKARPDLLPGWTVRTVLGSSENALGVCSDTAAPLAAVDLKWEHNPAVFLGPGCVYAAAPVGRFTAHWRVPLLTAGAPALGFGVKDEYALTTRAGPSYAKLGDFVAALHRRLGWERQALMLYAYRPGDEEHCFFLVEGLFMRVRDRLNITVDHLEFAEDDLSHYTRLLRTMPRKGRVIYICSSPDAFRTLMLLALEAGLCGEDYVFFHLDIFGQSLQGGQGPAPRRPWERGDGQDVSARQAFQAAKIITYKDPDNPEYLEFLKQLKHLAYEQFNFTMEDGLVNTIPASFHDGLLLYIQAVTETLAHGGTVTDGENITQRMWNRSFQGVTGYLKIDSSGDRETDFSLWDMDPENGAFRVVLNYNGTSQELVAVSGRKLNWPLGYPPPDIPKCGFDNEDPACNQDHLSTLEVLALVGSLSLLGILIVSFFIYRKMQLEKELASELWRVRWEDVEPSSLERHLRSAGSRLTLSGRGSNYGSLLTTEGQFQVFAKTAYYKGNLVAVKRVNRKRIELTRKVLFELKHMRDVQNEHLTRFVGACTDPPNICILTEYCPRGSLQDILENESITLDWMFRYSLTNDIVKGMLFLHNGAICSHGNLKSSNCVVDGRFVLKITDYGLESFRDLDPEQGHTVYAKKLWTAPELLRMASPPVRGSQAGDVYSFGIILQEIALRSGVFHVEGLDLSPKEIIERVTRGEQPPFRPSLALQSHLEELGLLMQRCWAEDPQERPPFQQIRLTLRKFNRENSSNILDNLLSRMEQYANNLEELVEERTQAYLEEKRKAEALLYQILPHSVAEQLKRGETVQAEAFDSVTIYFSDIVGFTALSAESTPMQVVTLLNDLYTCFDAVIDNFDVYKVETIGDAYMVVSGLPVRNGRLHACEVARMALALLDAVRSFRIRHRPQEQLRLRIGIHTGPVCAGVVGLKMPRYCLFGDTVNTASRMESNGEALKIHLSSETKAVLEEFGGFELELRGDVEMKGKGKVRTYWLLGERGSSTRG
#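 Compound pre-incubated 30 min at room temperature on GloSensor-loaded HEK293 cells stably carrying hNpr1 and the pGS-40F cGMP biosensor. Stimulation uses hNppA at 0.1 nM final; luminescence is taken at baseline and 20 min post-agonist.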
# Active calls of the source: *; ? = inconclusive; [ ] = another dose, or the depositor's remark. % is scaled to controls: 0 for no effect and ±100 for the full control effect; potency is read from the fitted curve at half-maximal effect. Only part of the results is shown; rates above refer to the full screens.
entry	SMILES	NPR1 antag
1	c1ccc(O[C@H]2COCCN(c3nc4ccccc4s3)C2)nc1	-2.7%[70.6 µM]
2	CCOC(=O)C1(Cc2cccc(C(F)(F)F)c2)CCN(Cc2cn(CC)nc2C)CC1	?
3	CC(C)c1noc(C2CCCN(Cc3ccccc3)CCC(=O)NCC2)n1 (stereo unspecified)	-3.6%
4	COc1cc(CN2CCC3(CC2)CN(c2ccncn2)CC3CO)ccc1F (stereo unspecified)	6.5%
5	CNC(=O)CN1CCCCC1C(=O)Nc1cccc(-c2cccc(OC)c2)c1 (stereo unspecified)	-0.8%
6	CCNC(=O)Nc1ccc2c(c1)CN(Cc1ccc(Cl)cc1)C(=O)C(C)O2 (stereo unspecified)	-24.7%
7	CCCN(CC1CCOC1)S(=O)(=O)c1ccc(F)c(Cl)c1 (stereo unspecified)	-2.3%
8	CN(Cc1ccccc1)C(=O)C[C@@H]1O[C@H](CNC(=O)c2ccc(N(C)C)cc2)[C@@H](O)[C@H]1O	0.7%
9	CN(C)c1ccc(-c2ccnc(N[C@H]3CO[C@H]4[C@@H]3OC[C@H]4OC(=O)NC3CCCCC3)n2)cc1	0.1%
10	COCCN1CCC(N2CCN(C(=O)c3cc(F)cc(F)c3)CC2)C1=O (stereo unspecified)	-2.2%
11	COc1ccc(Cl)cc1NC(=O)CCC1CCCN(C(=O)CCc2c(C)noc2C)C1 (stereo unspecified)	2.9%
12	COc1ccc(-c2nc3cc(C)ccc3cc2CN2CCN(C)C(CCO)C2)cc1 (stereo unspecified)	-1.6%
13	COc1cccc(-c2cc3c(=O)n(CC(O)c4ccc(C(C)C)cc4)ccn3n2)c1 (stereo unspecified)	-23.4%
14	COc1ccc2cc(C3CN(Cc4nc(C(N)=O)no4)CCO3)ccc2c1 (stereo unspecified)	3.0%
15	O=C(c1cnn(Cc2ccccc2)c1)N1CCCn2nc(CO)cc2C1	3.9%
16	O=C(Cc1ccccc1F)NCCc1noc(-c2cccnc2)n1	8.7%
17	O=C(Cn1c(=O)oc2ccccc21)N[C@@H]1CCOC[C@H]1Oc1ccccn1	-1.9%
18	O=C(c1ccc(=O)[nH]c1)N1CC[C@@H]2[C@@H](CCC(=O)N2CCc2cnc[nH]2)C1	-1.1%
19	Cc1nnnn1CC(=O)Nc1nn(Cc2ccccc2)c2cccc(OC(C)C)c12	0.3%
20	Oc1ccccc1CN[C@H]1[C@H](O)[C@@H](N2CCC(Cc3ccccc3)CC2)[C@@H]2OC[C@H]1O2	2.3%[70.6 µM]
21	O=C(Cn1c2c(c(=O)n1Cc1ccccc1)CCN(Cc1ccccc1)C2)N1CCC(c2ccccc2)CC1	-12.4%
22	O=C1CC(NC2CCSCC2)CN1CCc1cccc(Cl)c1 (stereo unspecified)	7.0%
23	O=C(CN1C(=O)NC2(CCS(=O)(=O)CC2)C1=O)Nc1ccc(Br)cc1	0.4%
24	Cc1noc(C)c1-c1cnc(Nc2ccc(F)cc2)c2c1CCO2	5.8%[70.6 µM]
25	O=C1c2cnc(-c3ccc(F)cc3F)nc2OCCN1Cc1ccc(F)cc1F	4.7%[70.6 µM]
26	CCCCNC(=O)c1nnn2cc(-c3ccc(Cl)cc3)[nH]c(=O)c12	4.0%
27	CNC(=O)N1C[C@@H](CN(C)C)[C@H](NC(=O)c2cccnc2)C1	-3.8%
28	CCc1noc(-c2cccc(-n3ccnc3-c3cc4n(n3)CCCNC4)c2)n1	-5.6%
29	O=C1OCC2=C1C(c1ccccc1)NC(=O)N2Cc1nc(C2CC2)no1 (stereo unspecified)	0.8%
30	COc1cccc(N2CCN(C(=O)c3ccc4c(c3)C(O)CCCCCN4C)CC2)c1 (stereo unspecified)	-28.8%
31	CC1=C[C@@H](CNC(=O)CN(C)C)[C@H](C(C)C)C[C@H]1Cc1nc2ccc(Cl)cc2[nH]1	-3.6%[70.6 µM]
32	COc1ccc(-c2nnc(C[C@@H]3C[C@@H](C(C)C)[C@H](CN4CCC(O)CC4)C=C3C)o2)cc1	2.8%
33	C[C@H]1[C@@H]2[C@@H](O)C([C@H](C)C(=O)NC3CC3)CC[C@@]2(C)CC[C@@H]1NC(=O)c1ccccn1 (stereo partly specified)	0.4%[70.6 µM]
34	COc1cncc(NC(=O)C2=NO[C@@H]3CN(Cc4cccs4)C[C@H]23)c1	-6.4%[70.6 µM]
35	COc1cc(CC2(CCC(=O)N3CCC(c4ccc(F)cc4)C3)CCC(=O)N2)ccc1F (stereo unspecified)	3.1%
36	COc1ccc(Cl)cc1S(=O)(=O)N1CCc2nn(C)c(=O)n2CC1	-1.2%
37	CCCS(=O)(=O)N1CCC(N2CCCC(C(=O)N3CCOCC3)C2)CC1 (stereo unspecified)	1.3%
38	COc1ccc(OC)c(-c2nc(CN3CCN(C)C(=O)C3C)c(C)o2)c1 (stereo unspecified)	3.8%
39	COc1cccc(-c2ccnc3nc(Cc4ccc(F)cc4)nn23)c1	2.8%
40	CC(NC(=O)c1ccc2nccn2c1)c1ccc(F)cc1 (stereo unspecified)	-2.8%[70.6 µM]
41	CCc1ccccc1CN1CCC(CO)(CN2CCCC2)CC1	5.8%
42	Cc1nn2c(c1-c1ccccc1C(C)C)N(C(=O)Cc1ccccn1)CCC2	-15.9%[70.6 µM]
43	Cc1cccc(C(=O)NCC(=O)N2CCCCCNC(=O)CC2c2ccccc2)c1 (stereo unspecified)	2.1%
44	Cc1cccc(S(=O)(=O)N(C)CC2CCOCC2)c1	-11.0%
45	COc1ccc(C(=O)N2CCC(Cc3nc(-c4ccccc4)no3)CC2)cc1OC	2.82µM*
46	OCc1ccc(-c2cc3c(ccn3Cc3cccnc3)c(C3=CCOCC3)n2)cc1	3.4%[70.6 µM]
47	Cc1csc(NC(=O)c2nc3c(o2)CCN(Cc2ccccc2F)CC3)n1	-21.5%[70.6 µM]
48	O=C1NC2(CCCN(Cc3cncs3)C2)COc2ccccc21 (stereo unspecified)	-5.7%
49	CN1[C@@H](CCC(=O)N2CCC(O)CC2)CNC(=O)[C@@H]2[C@H]1CCN2Cc1ncc[nH]1	7.2%[70.6 µM]
50	CCn1cc(S(=O)(=O)N2C[C@@H](Oc3ccccc3)C[C@@H]2C(=O)NC)cn1	-7.2%
51	CCN1CC2(CCN(C(=O)C3CCCCN3Cc3ccccc3)CC2)OC1=O (stereo unspecified)	7.3%
52	O=C(c1ccc2cccc(F)c2n1)N1CCN(C(=O)C2CCCCC2)CC1	-2.6%
53	Cn1cnc(C(=O)N[C@@H]2[C@@H](Cc3ccccc3)[C@H]3OCC[C@@H]23)c1	2.2%
54	CC(C)C[C@@H]1N[C@H](C(=O)N2CCN(C)CC2)Cc2cn(Cc3nccn3C)c3cccc1c23	-0.3%
55	O=C1CC(c2ccccc2)N(Cc2ccncc2)CCCN(C(=O)CCCc2ccccc2)CCN1 (stereo unspecified)	-3.5%
56	CN1c2cccnc2CN(Cc2ccccc2Cl)CC[C@H]1CO	5.9%[70.6 µM]
57	CCS(=O)(=O)N1CCCCCCNC(=O)[C@@H]2C[C@@H](C(=O)N3CCc4ccccc4C3)C[C@@H]21	-0.2%
58	Fc1ccc(C2Cn3nnc(-c4nc(-c5ccc(F)c(F)c5)no4)c3CO2)cc1 (stereo unspecified)	-9.3%
59	O=C(NC1CCCCC1)[C@@H]1C[C@@H](O)CN1C1CCN(C(=O)c2nccc3ccccc23)CC1	6.0%
60	Cc1nc(C)c(C(=O)N2CCC3(CC2)CC(N2CCCC2)CCO3)s1 (stereo unspecified)	19.1%

# Six compounds drawn at random from those above:
entry	SMILES	NPR1 antag
56	CN1c2cccnc2CN(Cc2ccccc2Cl)CC[C@H]1CO	5.9%[70.6 µM]
45	COc1ccc(C(=O)N2CCC(Cc3nc(-c4ccccc4)no3)CC2)cc1OC	2.82µM*
42	Cc1nn2c(c1-c1ccccc1C(C)C)N(C(=O)Cc1ccccn1)CCC2	-15.9%[70.6 µM]
41	CCc1ccccc1CN1CCC(CO)(CN2CCCC2)CC1	5.8%
48	O=C1NC2(CCCN(Cc3cncs3)C2)COc2ccccc21 (stereo unspecified)	-5.7%
47	Cc1csc(NC(=O)c2nc3c(o2)CCN(Cc2ccccc2F)CC3)n1	-21.5%[70.6 µM]

# Further entries:
entry	SMILES	NPR1 antag
61	CS(=O)(=O)N1CCC(C2CCN(C(=O)c3cn[nH]c3)C2)CC1 (stereo unspecified)	3.8%
62	COCCNC(=O)C1COC2(CCN(C(=O)c3ccc(F)cc3)CC2)N1C(=O)c1ccccc1C (stereo unspecified)	2.8%
63	O=C([C@@H]1C[C@H](c2ccc(F)cc2)N(Cc2ccccc2Cl)C1)N1CCOCC1	-4.6%[70.6 µM]
64	CC1(c2ccccc2)N(Cc2ncccn2)C(=O)OC12CCN(Cc1cccc(O)c1)CC2 (stereo unspecified)	0.7%
65	N#Cc1ccc(C(=O)N2CCN3C(=O)N(Cc4ccccc4)C(=O)[C@H]3C2)cc1	-9.9%[70.6 µM]
66	N#Cc1cccc(CN2C[C@H](O)C[C@H]2c2nc(-c3ccc4c(c3)OCO4)no2)c1	-5.8%[70.6 µM]
67	O=C(NCC1CCOC1)C1CCN(c2nc(-c3ccccc3)nc3c2CCC3)CC1 (stereo unspecified)	-0.6%
68	CCOc1ccc(NC(=O)N2c3ccccc3CC2c2nc(C3CC3)no2)cc1 (stereo unspecified)	-7.9%
69	O=C(O)c1cc2c(s1)CCN(C(=O)c1ccc(F)cc1)C2	0.9%
70	COCCn1ncc(N2CCCC(CC(=O)NCc3ccc(OC)cc3)C2)cc1=O (stereo unspecified)	-14.8%
71	Cc1noc(C)c1S(=O)(=O)N1CCOCCNC(=O)[C@@H]2CCC[C@@H]21	-3.2%
72	N#Cc1ccccc1OCC1CN(Cc2cccc(C(F)(F)F)c2)C(=O)c2c(ccnc2-c2ccc(OCC(=O)O)cc2)O1 (stereo unspecified)	0.2%
73	CNC(=O)[C@@H]1C[C@H](Oc2ccccc2)CN1S(=O)(=O)c1ccc2c(c1)CCC2	1.6%
74	CC(=O)N1CCCN(Cc2nc(-c3cccc(Oc4ccccc4)c3)oc2C)CC1	1.5%
75	Cn1cccc1CN1CCC2(CC1)COc1ccccc1C(=O)N2	35.3%[activator][70.6 µM]
76	COCCO[C@H]1C(=O)N(C2CCN(C(=O)NC3CCCCC3)CC2)[C@H]1c1ccncc1	4.1%
77	O=c1ccc(N2CCC(NS(=O)(=O)c3ccc(F)c(F)c3)CC2)nn1CC1CC1	-17.9%
78	COC(=O)CNC(=O)N1CCCCCCn2c(nnc2-c2ccc(F)cc2)CC1	-4.5%
79	Cc1ncsc1CN1CCCC(c2nc(CCOCC3CCCC3)no2)C1 (stereo unspecified)	?
80	COc1ccc(-c2cc(N3CCC(NC(=O)Cc4ccccc4F)CC3)n[nH]2)cc1	3.0%
81	CC(C)(Oc1nn(Cc2cccc(Cl)c2)c2ccccc12)C(=O)NCC1CCOCC1	?
82	COC1CN(c2cccc(F)c2)C12CCN(C(=O)NC1CCCCC1)CC2 (stereo unspecified)	1.8%
83	CCC(CC)n1ncc(C)c1NC(=O)CC(c1ccccc1)c1ccco1 (stereo unspecified)	0.0%
84	c1cc(-c2noc([C@@H]3CCCN3C3CCOCC3)n2)cc(N2CCCC2)n1	2.0%[70.6 µM]
85	Cn1nccc1C(=O)NCC(=O)N1CCCCCNC(=O)CC1c1ccccc1 (stereo unspecified)	3.0%
86	O=C1CCN(C(=O)c2ccco2)CCCC(CO)CCN1 (stereo unspecified)	2.4%
87	N#Cc1ccc(S(=O)(=O)N2CCC(Cc3nc(-c4cccnc4)n[nH]3)C2)cc1 (stereo unspecified)	-4.0%
88	Cc1cc(=O)n(CC(=O)NCc2ccc3c(c2)OCO3)c(N2CCc3ccccc3C2)n1	-3.2%
89	CC(C)n1cccc1C(=O)N1CCC2(CC1)CC(c1ccccc1)CN2C (stereo unspecified)	0.1%
90	COc1cc(CN2CCN(Cc3cnc(SC)nc3)CC2CCO)cc(OC)c1 (stereo unspecified)	1.1%
91	Cc1nn(C(=O)CCCC(=O)N2CCC(Cc3nncn3-c3ccccc3)CC2)c2ccccc12	-5.1%
92	COc1ccc(C(=O)NCCc2ncc(C)n2CC2CC2)cc1	-2.8%
93	OC1CC(c2cc(NCCCn3ccc4ccccc43)ncn2)C1 (stereo unspecified)	11.2µM*
94	COc1ccccc1NC(=O)N1CC(c2nnc(-c3ccncc3)o2)C2(CCOCC2)C1 (stereo unspecified)	-13.0%
95	CN(C)C(=O)c1n[nH]c2c1CN(C(=O)c1ccc(F)cc1)CC2	-1.1%
96	N#CCn1nc2n(c1=O)CCN(C(=O)NCCc1ccccc1)CC2	0.7%
97	CNC(=O)[C@@H]1CN(C(=O)c2ccoc2)C[C@H]1CO	0.5%
98	Cc1nn(-c2ccccc2)c(Oc2ccc(F)cc2F)c1CCC(=O)NC1CC1	-14.5%
99	O=C(c1ccccc1)N1CCCC(c2noc(COc3ccccc3)n2)C1 (stereo unspecified)	0.8%
100	COc1ccc2[nH]c(C(=O)N3C[C@@H](CO)[C@H](c4ccccn4)C3)cc2c1	-9.2%
101	Cc1ccc(NC(=O)N2C[C@@H](F)C[C@H]2C(=O)N2CCc3ccccc3C2)c(C)c1	-3.6%
102	O=C(Nc1ccc(F)cc1F)N1CCC2(CC1)SCC(=O)N2c1ccc(F)cc1	-0.7%
103	COCCNC(=O)c1nc2sccn2c1Br	7.2%[70.6 µM]
104	Cc1cc(C)c(CNC(=O)c2nc(-c3ccccc3)cc3c2ccn3C(C)C)c(=O)[nH]1	-11.3%[70.6 µM]
105	C[C@]1(CO)[C@H]2Cc3sc(NC(=O)c4ccco4)nc3[C@@H](CC(=O)Nc3ccccc3)[C@]2(C)CC[C@H]1O	0.0%
106	CCCS(=O)(=O)N1CCC2(CCCN(Cc3cccc(F)c3F)C2=O)C1 (stereo unspecified)	-4.7%
